Source: PubChem (several laboratories)
Beta apoptosis = beta cell apoptosis inhibition. AID 435005. protection from apoptosis, % (no concentration beside the values). hit rate 0.8% among 300,000. INS-1E cytokine-induced death, ATP luminescence, 48 h; percent of positive-control rescue, neutral wells zero;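 active means all replicates at 75% or more, or half of them and the mean; inconclusive means half reach 75% but not the mean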;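 further: 0% = cytokine-treated negative control wells and 100% = positive control rescue; higher means more ATP so stronger rescue from cytokine killing; wells of about 40 µL received 100 nL stock; the first replicate is given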
A1 inh = inhibitors of the anti-apoptotic protein A1, read as caspase activation; caspase activation, % (concentration not given with the values); MEF A1-2A-BIM cells, Caspase-Glo 3/7 luminescence, 3 h; percent of clofoctol response, vehicle zero; hit rate 0.066% among 330,000; AID 2462;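 active means over half of replicate activation scores above 10%, or exactly half above 10 with the replicate mean above 10; inconclusive means replicate mean below 10 yet half the replicates above 10; inactive means over half of replicates below 10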;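 further: wells of about 30 µL received 50 nL stock; many hits fall short of the cut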
LANA-H2B inh = blocks KSHV LANA binding to histone H2A/H2B; inhibition, % (test concentration not listed); hit rate 0.6% among 320,000; cell-free LANA-H2A/H2B peptide, fluorescence polarization; AID 2629; in the data active means inhibition mostly above about 10%, no sharp cut-off; inactive means mostly below about 6.7%;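 further: stock transfer was 7.5 nL into about 10 µL; 0% = median of vehicle wells and 100% = median of positive control wells; one replicate is shown; the record names a cut of 25% in any replicate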
Target sequence (Q9QR71 whole entry, looked up): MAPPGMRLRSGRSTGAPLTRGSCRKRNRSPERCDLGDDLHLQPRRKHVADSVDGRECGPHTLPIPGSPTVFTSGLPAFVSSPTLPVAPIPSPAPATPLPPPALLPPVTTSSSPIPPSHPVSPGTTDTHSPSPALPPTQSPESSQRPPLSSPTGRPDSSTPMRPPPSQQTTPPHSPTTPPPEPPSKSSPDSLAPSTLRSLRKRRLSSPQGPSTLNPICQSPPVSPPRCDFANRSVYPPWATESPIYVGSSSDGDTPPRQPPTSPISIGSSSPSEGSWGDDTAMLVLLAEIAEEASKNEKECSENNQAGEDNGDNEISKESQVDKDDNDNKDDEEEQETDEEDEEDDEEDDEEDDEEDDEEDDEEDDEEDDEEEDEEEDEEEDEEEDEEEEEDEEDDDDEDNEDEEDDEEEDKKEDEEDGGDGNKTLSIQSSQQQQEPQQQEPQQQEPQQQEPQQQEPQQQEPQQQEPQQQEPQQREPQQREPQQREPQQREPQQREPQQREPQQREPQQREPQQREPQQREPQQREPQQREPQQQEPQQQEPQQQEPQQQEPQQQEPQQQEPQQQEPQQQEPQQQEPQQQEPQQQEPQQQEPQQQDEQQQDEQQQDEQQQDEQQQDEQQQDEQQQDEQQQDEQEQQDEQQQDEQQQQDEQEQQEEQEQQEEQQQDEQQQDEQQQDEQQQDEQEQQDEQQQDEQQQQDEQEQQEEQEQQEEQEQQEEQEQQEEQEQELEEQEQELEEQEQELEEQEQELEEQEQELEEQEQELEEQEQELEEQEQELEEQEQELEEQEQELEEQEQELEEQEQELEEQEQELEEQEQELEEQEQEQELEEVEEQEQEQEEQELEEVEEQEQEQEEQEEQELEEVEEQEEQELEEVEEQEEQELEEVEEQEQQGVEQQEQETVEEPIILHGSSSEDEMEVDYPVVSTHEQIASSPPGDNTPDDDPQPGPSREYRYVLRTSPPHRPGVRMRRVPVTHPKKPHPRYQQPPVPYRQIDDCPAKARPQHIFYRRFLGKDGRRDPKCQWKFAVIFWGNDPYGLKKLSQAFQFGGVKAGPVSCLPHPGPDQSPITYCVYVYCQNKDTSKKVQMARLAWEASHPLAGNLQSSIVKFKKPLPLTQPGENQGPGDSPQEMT
ALR H2O2 inh = inhibitors of human sulfhydryl oxidase ALR; P55789; purified ALR, DTT oxidation, H2O2 HRP-luminol luminescence; inhibition, % (test concentration not listed); hit rate 3.8% among 290,000;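 active means mean and each replicate at 75% or more; inconclusive means only one of the two met; inactive means neither met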;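 further: stock transfer was 7.5 nL into about 7.5 µL; 0% = neutral wells and 100% = wells with inactivated enzyme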
Calb FLC = C. albicans growth modulation with fluconazole; C. albicans CaCi-2 (fluconazole-resistant clinical isolate) + fluconazole, Alamar Blue growth, 48 h; growth inhibition, % (no concentration beside the values); hit rate 0.57% among 300,000; AID 1979;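 active means most replicates above 75%; inconclusive means exactly half above 75%; inactive means most below 75%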;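 further: all wells also contain fluconazole at 8 µg/ml as a sub-toxic cotreatment; 0% = median of DMSO wells and 100% = median of geldanamycin control wells; wells of about 8 µL received 7.5 nL stock; the first replicate is given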
rRNA inh HTS = inhibitors of bacterial rRNA selective over humanized ribosomes; E. coli WT GFP vs humanized-ribosome RFP mutants, fluorescence, 24 h; stronger effect = lower value; DMSO median 0, no signal -100; GFP signal change (wild-type ribosome), % (no concentration beside the values); hit rate 1.6% among 350,000;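 active means significant combined selectivity score with lowered wild-type GFP, culture density cut under 30%, mutant RFP and density less affected; inactive means any of these conditions unmet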; further: one replicate is shown; some compounds called inactive have numbers as strong as hits
Beta2AR agonist = activates human beta-2 adrenergic receptor causing internalization; P07550; Am2.2-beta2AR cells, FAP receptor internalization, flow cytometry; reference of the scale not given here; response, % (concentration not given with the values); hit rate 0.43% among 340,000;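 active means response above a set limit, near 3 SD of response in nonfluorescent compounds, cut at about 42% in these data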;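 further: stock transfer was 100 nL into about 11 µL; a reference agonist was the positive control; negative values mostly stem from fluorescent compounds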
T cruzi inh = T. cruzi replication inhibition; T. cruzi beta-gal in NIH3T3, luminescence, 90 h; inhibition, % (test concentration not listed); hit rate 1.4% among 300,000; AID 1885;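 active means mean inhibition across valid replicates above about 55%, limit read from the data; inconclusive means mean below that limit but half or more replicates reach it; inactive means mean below it, under half of replicates reach it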;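 further: signal also drops with host cell toxicity which is not excluded here; 0% = plate median of DMSO wells and 100% = zero luminescence signal; higher percent means less beta-gal luminescence so fewer parasites; stock transfer was 50 nL into about 50 µL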
rRNA inh HTS OD600 = second read-out of rRNA inh HTS, no call of its own (marks repeat the call); OD600 change, %; measured here: OD600 growth;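 optical density of the mix in the first replicate; 0 = DMSO median and -100 = no signal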
rRNA inh HTS RFP = further read-out of rRNA inh HTS, marked with its call; RFP signal change, %; measured here: RFP humanized mutant strains;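 first replicate; 0 = DMSO median and -100 = no signal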
Active calls of the source: *; ? = inconclusive; / = no result given. The list is partial. The share of hits here may be higher or lower than overall.

SMILES | Beta apoptosis | A1 inh | LANA-H2B inh | ALR H2O2 inh | Calb FLC | rRNA inh HTS | rRNA inh HTS OD600 | rRNA inh HTS RFP | Beta2AR agonist | T cruzi inh
C=CCOc1ccccc1CN1CCC(Oc2ccc(C(=O)N3CCCC3)cc2)CC1 | -3 | -0.9 | -2.9 | -46 | 4 | 7 | 13 | 3.4 | -9 | 11
C=CCn1c(SCC(=O)NCCO)nc2sc(C)c(C)c2c1=O | -4 | 0.5 | -7.9 | -16 | 8 | 19 | -11 | 1.5 | -2 | -4
O=C(CCc1ccc(S(=O)(=O)N2CCOCC2)cc1)Nc1c(F)cccc1F | -1 | 0.3 | -3.6 | -5 | / | 3 | 7 | -0.4 | -14 | /
O=C(COC(=O)c1cccc(S(=O)(=O)N2CCOCC2)c1)Nc1ncc(C(F)(F)F)cc1Cl | -6 | 0.1 | 1.0 | -2 | 13 | / | / | / | -6 | -6
NNC(=O)c1cncn1-c1ccc(F)cc1 | -2 | 0.9 | -0.5 | -4 | ? | 13 | 1 | -3.4 | -3 | -12
CC1=C(c2ccccc2)[N+](=O)C2(CCCCC2)N1[O-] | -4 | -0.2 | -0.5 | 4 | 4 | 11 | 8 | -0.8 | -3 | -28
O=C(NCCCN1CCCCCC1)c1ccc2c(c1)NC(=O)C(N1CCOCC1)S2 (stereo unspecified) | -6 | 0.4 | -3.4 | -1 | 0 | / | / | / | -1 | -5
COc1ccc(CCNC(=O)COC(=O)c2cc(=O)[nH]c3ccccc23)cc1 | 3 | -0.4 | 2.0 | 1 | / | 22 | 12 | 3.7 | -7 | /
O=C1C(=O)N(CCCN2CCOCC2)C(c2ccc(F)cc2)/C1=C(/O)c1ccccc1 (stereo unspecified) | -9 | 0.4 | 2.2 | 48 | / | 6 | 11 | -3.0 | 2 | -4
CCOc1ccccc1NC(=S)NCc1ccccc1 | 1 | 1.0 | -7.6 | -1 | 2 | -5 | -4 | -0.7 | 3 | -11
O=C(NC(=O)c1ccc(Cl)cc1)Nc1ccc(-c2cnco2)cc1 | / | -0.1 | -4.3 | / | 1 | / | / | / | / | -2
O=C(NCc1cccnc1)NC(=O)c1ccc(Cl)cc1 | / | 0.1 | -3.8 | 1 | -4 | 2 | 12 | 1.1 | -7 | -6
COc1cccc(-n2nnc3c(=O)n(CC(=O)N4CCCc5ccccc54)cnc32)c1 | 1 | 0.5 | 4.2 | 23 | 0 | / | / | / | -1 | 9
COCCN(CCOC)C(=O)c1cc2sc3ccccc3c2s1 | 2 | -0.2 | 1.1 | -16 | 0 | -23 | -19 | 2.4 | -10 | 16
Cc1oc(-c2ccccc2)nc1C(=O)OCC(=O)NCc1ccccc1 | 3 | 0.3 | -1.9 | -6 | / | 3 | 5 | 1.0 | 10 | /
O=C(NCCCCCNC(=O)c1cccnc1)c1cccnc1 | 10 | 0.0 | -0.4 | -3 | -5 | / | / | / | 4 | -3
COc1cccc(-n2nnc3c(=O)n(CC(=O)Nc4cc(C)on4)cnc32)c1 | -12 | 0.6 | -1.1 | 0 | 18 | 0 | 7 | -0.3 | -8 | -11
Cc1ccc(S(=O)(=O)NC(CC(=O)O)c2cccs2)cc1 (stereo unspecified) | -6 | 1.8 | -6.7 | -9 | 10 | 3 | 11 | -1.4 | -5 | -9
COc1ccccc1NC(=O)CC1C(=O)NCCN1C(=O)Nc1ccccc1 (stereo unspecified) | -2 | 0.0 | -8.5 | 1 | -18 | / | / | / | -10 | 5
COc1ccc(-c2cc(C(=O)NCc3ccco3)no2)cc1OC | 0 | -0.5 | -2.4 | -1 | / | / | / | / | 7 | /
COC(=O)CCCC(=O)N1CCOCCN(C(=O)CCCC(=O)OC)CCOCC1 | -1 | 0.1 | 6.7 | -4 | 0 | / | / | / | 1 | -15
COc1ccc(-c2nc(CS(=O)CC(=O)N3CCN(C)CC3)c(C)o2)cc1 (stereo unspecified) | -1 | 0.6 | 2.8 | 99* | 0 | -1 | 6 | -0.5 | 1 | -14
CC(C)CN(CC(C)C)C(=S)Nc1ccc(Cl)cc1 | -15 | -0.6 | -3.4 | 1 | -17 | 1 | 0 | 0.8 | 1 | 10
CCN1CCN(c2ccc(S(=O)(=O)N3CCCCC3)cc2NC(=O)c2ccccc2)CC1 | 3 | -1.2 | 3.3 | -1 | -14 | 3 | 4 | -1.5 | -5 | 31
Cc1ccc(/C=C/C(=O)OCC(=O)c2ccc3c(c2)NC(=O)CO3)o1 | -1 | 1.0 | 12 | -2 | / | 12 | 20 | 3.7 | -2 | /
CCCOc1ccc(OCCn2nc(C(=O)O)c3ccccc3c2=O)cc1 | 7 | 0.1 | -3.9 | -11 | 20 | 0 | 13 | -2.2 | -2 | 3
CCn1c(-c2cc(C3CC3)nc3ccccc23)n[nH]c1=S | / | 0.0 | -3.6 | 31 | 9 | -5 | 3 | 2.1 | -3 | 11
Cc1ccc(/C=C/C(=O)Nc2ccc(N(C)C)cc2)o1 | -1 | -1.8 | -0.4 | / | -28 | / | / | / | 9 | 47
Fc1ccc(NC(=S)N2N=CCC2c2ccccc2)cc1 (stereo unspecified) | -14 | -2.9 | 0.8 | -1 | 2 | / | / | / | 4 | -1
Cc1cc(S(=O)(=O)N2CCCOC2CNC(=O)C(=O)NCCc2ccco2)ccc1F (stereo unspecified) | -8 | 2.9 | 1.3 | -4 | 10 | -1 | -3 | 2.6 | 1 | -8
CCOc1cc2c(cc1OCC)C(c1ccccc1OC)OC(=O)C2 (stereo unspecified) | -3 | -1.0 | 7.1 | 2 | 27 | 5 | 7 | -3.9 | 3 | 7
S=c1[nH]c(-c2ccc(Cl)cc2)cs1 | -6 | 0.5 | 2.6 | 97* | 24 | -19 | -5 | 1.3 | 4 | -18
COc1ccc(C(=O)C2CCCN(Cc3ccc(Sc4nncn4C)o3)C2)cc1F (stereo unspecified) | -4 | -0.6 | -6.7 | 4 | -1 | 5 | 4 | -2.4 | 3 | -3
CC1=C(C#N)C(=O)NC(C)(C)C1 | -3 | 1.1 | 4.5 | -3 | -38 | 5 | -2 | -3.4 | -8 | -16
CN(C(=O)c1cccc(S(=O)(=O)N2CCOCC2)c1)c1c(N)n(Cc2ccccc2)c(=O)[nH]c1=O | -1 | 2.7 | -2.7 | -2 | / | / | / | / | 3 | /
CCOC(=O)C1=C(C)OC(N)=C(C#N)C1c1cccc(C)c1 (stereo unspecified) | 0 | 0.8 | 0.9 | 0 | 7 | 13 | 11 | 2.1 | 8 | -4
COc1cc(OC)c(C(=O)N/N=C/c2ccoc2)cc1OC | -2 | 1.0 | -1.6 | -29 | 7 | 0 | 11 | -2.6 | -23 | -10
O=C(Nc1cccc(S(=O)(=O)NC2=NCCC2)c1)c1cc(-c2ccco2)nc2ccccc12 | -7 | 0.3 | 0.0 | -3 | -4 | 0 | -6 | 0.3 | -3 | 0
Cc1ccc(O)c(C(=O)c2cnn(C(=O)Cc3csc(C)n3)c2)c1 | -5 | 1.0 | -3.7 | -1 | / | / | / | / | 20 | /
COc1ccc(OCC(=O)Nc2ccc3oc(=O)ccc3c2)cc1 | 3 | -1.5 | 4.1 | / | 29 | 3 | 6 | 1.7 | 2 | -6
Cn1c(=O)n(Cc2ccc(Br)cc2)c2ccccc21 | 6 | 1.1 | -4.6 | 3 | -2 | -48* | -35* | -13* | -8 | 9
CCc1cc(=O)oc2cc(C)cc(OCC(C)=O)c12 | -6 | 0.9 | -4.8 | -8 | 2 | -7 | -23 | -1.0 | -3 | -19
Oc1ccc(Cl)cc1C(C#Cc1ccccc1)N1CCOCC1 (stereo unspecified) | 2 | -0.2 | -5.8 | 0 | -2 | / | / | / | 0 | 13
CN(CC(=O)NCc1ccc2c(c1)OCO2)CC(=O)Nc1ccc(F)c(F)c1F | -7 | 0.5 | -2.2 | / | / | -3 | -2 | -1.5 | -5 | /
Cc1ccc(C)c(NC(=O)CSc2nnc(-c3ccncc3)n2N)c1 | -2 | 0.6 | 1.8 | -9 | -10 | / | / | / | 2 | -5
COc1cc(OC)c(OC)cc1/C=C1/C(=O)N=C(N)N1C | -10 | 0.0 | 0.6 | -17 | 5 | 20 | 21 | 2.3 | 3 | -11
CC(=O)Oc1ccc2oc(=O)c3c(c2c1)CCCN3C(=O)CN1CCN(c2ncccn2)CC1 | -3 | 0.0 | 1.8 | 0 | -2 | / | / | / | -6 | 12
Cc1cc2c(cc1S(=O)(=O)CCC(=O)N(C)Cc1ccccc1)OCC(=O)N2 | 2 | -0.7 | -2.1 | -3 | -8 | 7 | -2 | -4.7 | 3 | 0
CCn1cc(S(=O)(=O)Nc2ccccc2C(F)(F)F)cn1 | / | 0.2 | 1.2 | -9 | -5 | 9 | 4 | 2.2 | 9 | -1
O=C(Nc1ccc2c(c1)CCC2)c1ccc(F)c(S(=O)(=O)N2CCOCC2)c1 | 5 | 0.7 | -0.3 | 11 | -8 | / | / | / | 5 | 6
NC(=O)C1CCN(C2CC(=O)N(c3ccc(F)c(Cl)c3)C2=O)CC1 (stereo unspecified) | -4 | -0.4 | 5.5 | -10 | 3 | / | / | / | 9 | 3
Cn1c(SCC(=O)O)nnc1-c1ccc(NC(=O)c2ccc(Cl)c(Cl)c2)cc1 | -3 | 0.2 | 3.6 | 1 | -1 | -2 | -2 | -3.6 | 4 | -1
Cc1cc(NCCCn2ccnc2)n2nc(C)c(-c3ccccc3)c2n1 | 11 | 2.8 | -3.0 | 19 | 26 | / | / | / | -18 | 28
c1ccc(-n2c(Cc3cccnc3)nc3cnccc32)cc1 | 3 | 0.4 | 3.0 | -8 | -1 | / | / | / | 12 | -5
Cc1cc(C(=O)CCC(=O)N2CCN(c3ccccc3O)CC2)c(C)s1 | -4 | -0.8 | -1.1 | 27 | / | -17 | -27 | -0.1 | 1 | /
CN(Cc1ccccc1)C(=O)COC(=O)c1ccccc1Nc1ccccc1 | / | 0.2 | 5.8 | 1 | 12 | 2 | -9 | -3.3 | 0 | -8
CCOC(=O)C1CCN(C(=O)/C(=C/c2ccccc2)NC(=O)c2ccccc2)CC1 | 0 | -0.6 | -1.1 | / | 9 | 12 | 3 | 2.2 | 9 | -5
COc1ccc(NC(=O)NC(C)c2ccncc2)cc1OC (stereo unspecified) | -8 | 1.1 | -2.5 | -55 | -4 | / | / | / | -3 | 10
Cc1ccccc1Nc1nc(N)nc(CSCC(=O)Nc2cccc(Br)c2)n1 | -11 | -0.8 | -2.3 | 61 | 12 | -43 | -61 | -20 | 10 | -1
N#Cc1c(-c2cccs2)cc(-c2ccccn2)nc1N | 7 | 0.2 | 4.5 | -13 | -9 | / | / | / | -10 | -22
CCOc1ccccc1NC(=O)c1ccc(S(=O)(=O)N2CCCCC2)cc1 | 2 | 0.4 | -1.0 | 1 | 8 | -7 | -7 | 0.1 | -3 | 2
